HSD17B inh: HSD17B dehydrogenase inhibition | Q99714 | recombinant HSD17B10, NADH fluorescence kinetic; many of its hits are not listed in these tables | Potency, µM (series often up to 57.1 µM), without a hit: top-dose activity change, negative = inhibition, most hits filed as inhibitors | 75,000 tested, 7.6% active; active means well fitted inhibition curve with a large enough effect; inconclusive means small, poorly fitted or top-dose-only effect; inactive means no such curve, though single readings can be large or run the other way;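 further: the protocol describes HADH2 (HSD17B10) and not the HSD17B4 of the title; nearly all actives have a fitted effect of over 70% in size; most hits overshoot -100% by far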
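Enzyme plus compound, 15 min room temperature; substrate mix added (NAD+ 1 mM, beta-hydroxybutyryl-CoA 90 uM final); plates read kinetically for NADH fluorescence. HADH2 was His-tagged, E. coli-derived, 20 nM.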
Active calls of the source: *; ? = inconclusive; ! = repeats disagree; [ ] = remark or other dose. On the % scale 0 is the no-effect control and ±100 the full control effect; potency means the concentration at half of the fitted maximal effect.

canonical_smiles | HSD17B inh
CN1CCCCc2c1nc1c(c2N)CCCC1 | 0%
CCC1=C(OC(=O)N(CC)CC)N2C(=O)OC(=NCC3CC3)[C@]2(Cc2ccccc2)[C@H]2C1=CC[C@H]1C(=O)N(c3ccccc3)C(=O)[C@H]12 | 5%
CCOC(=O)c1sc(N)c(C#N)c1COC(=O)CNC(=O)c1ccccc1 | -3%
COc1nc(-c2ccccc2)ccc1-c1noc(-c2ccccc2)n1 | -4%
Cc1ccccc1Cn1ccc(NC(=O)c2cnn3c(C(F)(F)F)cc(-c4ccco4)nc23)n1 | 6%
C=CCn1c(SCC(=O)Nc2ccc3c(c2)OCO3)nc2ccccc2c1=O | 28%
CCOC(=O)N1CCN(Cc2nc3c(c(=O)n(C)c(=O)n3C)n2CCCc2ccccc2)CC1 | 8%
COCCN(C(=O)Nc1ccc(OC)cc1OC)C1CCN(C(C)C)CC1 | 6%

canonical_smiles | HSD17B inh
COc1ccccc1-c1nnc2sc(COc3ccc(Cl)cc3Cl)nn12 | -10%
O=C(NCC1CCS(=O)(=O)C1)NCC1CCS(=O)(=O)C1 (stereo not drawn) | 0%
c1ccc2oc(SCc3cn4ccccc4n3)nc2c1 | 8%
COc1cc(C(=O)Nc2ccc(NC(=O)C3CC3)nc2)cc(OC)c1OC | 8%
CC1(C)CC(=O)C2=C(C1)Nc1ncnn1C2c1ccccn1 (stereo not drawn) | 43%[activator]
Cc1cc(NC(=O)c2cc(-c3ccco3)on2)n(-c2ccccc2)n1 | -22%
CCOc1cc(C2C(C(=O)c3ccco3)=C(O)C(=O)N2CCc2ccccc2)ccc1O (stereo not drawn) | -6%
COc1cccc(-c2nnc(Nc3nc4c(F)cccc4s3)o2)c1 | 32µM*

canonical_smiles | HSD17B inh
O=C(CCN1C(=O)c2ccccc2C1=O)NCCC1=CCCCC1 | 14%
CCOC(=O)c1cnc(SCc2nc(N)nc(Nc3ccc(F)cc3)n2)nc1N | -24%
CCCCOc1ccc(CSc2n[nH]c(C)n2)cc1 | 0%
Cn1nnc(NC(=O)c2ccc(C(C)(C)C)cc2)n1 | 6%
CCn1c(SCCOc2ccc(Cl)cc2)nnc1-c1cccs1 | -26%
Cc1ccc(C(C(=O)NCc2ccco2)N(CCc2ccccc2)C(=O)Cn2nnc3ccccc32)o1 (stereo not drawn) | -3%
C=C(CC(=O)O)C(=O)O (tested in a mixture with another compound) | ?
COc1ccc(-c2cc(C(=O)NCc3cccnc3)no2)cc1OC | 1%

canonical_smiles | HSD17B inh
Cc1cccc(N2CCN(C(c3cccs3)c3nnnn3C(C)(C)C)CC2)c1C (stereo not drawn) | -3%
CCC(C)NC(=O)COc1ccc(S(=O)(=O)N2CCOCC2)cc1 (stereo not drawn) | 6%
O=C(CCc1ccc(O)cc1)c1c(O)cc(O)cc1O | 25µM*!
CCOC(=O)N1CCC(N2Cc3cccc(C(=O)Nc4ccc(OC)c(OC)c4)c3C2=O)CC1 | -3%
C=CCn1c(=O)c(C(=O)NCCNCC)c(O)c2ccccc21 | -11%
CCC(C)[C@H](NC(=O)N1CCCC1)C(=O)O (stereo partly drawn) | 8%
CCC(=O)N1c2ccccc2[C@@H](N(C(C)=O)c2ccccc2)C[C@H]1C | 6%
CC1=C(C(=O)OCc2ccc3c(c2)OCO3)C(c2ccccc2)NC(=O)N1 (stereo not drawn) | 13%

Ordered by length of the SMILES (rising): part of the list above
canonical_smiles | HSD17B inh
C=C(CC(=O)O)C(=O)O (tested in a mixture with another compound) | ?
CCC(C)[C@H](NC(=O)N1CCCC1)C(=O)O (stereo partly drawn) | 8%
O=C(CCc1ccc(O)cc1)c1c(O)cc(O)cc1O | 25µM*!
C=CCn1c(=O)c(C(=O)NCCNCC)c(O)c2ccccc21 | -11%
Cc1cccc(N2CCN(C(c3cccs3)c3nnnn3C(C)(C)C)CC2)c1C (stereo not drawn) | -3%
CC1=C(C(=O)OCc2ccc3c(c2)OCO3)C(c2ccccc2)NC(=O)N1 (stereo not drawn) | 13%
CCC(=O)N1c2ccccc2[C@@H](N(C(C)=O)c2ccccc2)C[C@H]1C | 6%

Some values from the entries so far:
Entry for COc1ccccc1-c1nnc2sc(COc3ccc(Cl)cc3Cl)nn12 under HSD17B inh: -10%
Entry for C=CCn1c(SCC(=O)Nc2ccc3c(c2)OCO3)nc2ccccc2c1=O under HSD17B inh: 28%
Entry for Cc1ccccc1Cn1ccc(NC(=O)c2cnn3c(C(F)(F)F)cc(-c4ccco4)nc23)n1 under HSD17B inh: 6%
Entry for CCCCOc1ccc(CSc2n[nH]c(C)n2)cc1 under HSD17B inh: 0%

Next section
canonical_smiles | HSD17B inh
COC(=O)c1c(NC(=O)CN2CCN(c3ccccc3OC)CC2)c2c(C)cccc2n1C | -7%
NC(=O)C1CCN(c2nc(-c3ccccc3)nc3c2oc2ccccc23)CC1 | -8%
Cn1c(SC/C=C/c2ccccc2)nnc1-c1cnccn1 | 11%
O=C(CCn1c(=O)c2sccc2n(Cc2cc(=O)n3ccccc3n2)c1=O)NCc1ccco1 | ?
N[C@@H]1CONC1=O | -3%[25.6 µM]
CCCN1Cc2cccc(C(N)=O)c2C1=O | 5%
O=C(NCc1ccccn1)c1cn(CCc2ccccc2)nn1 | 0%
CCCC(=O)C1=C(O)C(C(=O)OC)C(C)(C)CC1=Nc1ccncc1 (stereo not drawn) | -5%

canonical_smiles | HSD17B inh
Cc1nc(N)[nH]c(=O)c1CCC(=O)OCC(C)C | -3%
CC(=O)c1cccc(NC(=O)c2cc3ccccn3n2)c1 | -1%
CCc1nnc(NC(=O)C2CCCN2C(=O)Nc2ccccc2OC)s1 (stereo not drawn) | -1%
COC(=O)[C@H](CCSC)NC(=O)NCc1cccs1 | 12%
CCCCCn1c(CN2CCN(C(=O)OCC)CC2)nc2c1c(=O)n(C)c(=O)n2C | 9%
O=C(COC(=O)C1(c2ccc(F)cc2)CCCC1)N1CCOCC1 | 1%
CCCCn1c(CNC(=O)c2cccs2)nc2ccccc21 | 6%
Nc1ccc[n+](Cc2ccccn2)c1 | ?

canonical_smiles | HSD17B inh
Cn1nc(C(=O)OCCN2C(=O)c3ccccc3C2=O)c2ccccc2c1=O | -9%
COC(=O)c1cc2ccsc2n1CC(=O)NCC1CCCO1 (stereo not drawn) | 1%
CS(=O)(=O)N1CCC2(CCCN(C(=O)Nc3cccc(C#N)c3)C2)CC1 | 7%
Cc1nc(-c2cccc(-c3noc(C)n3)c2)no1 | 2%
CSC(=O)CC(=O)NC(=O)c1ccccc1 | 12%
COc1ccccc1N1C(=O)C2CC=CC(C)C2C1=O (stereo not drawn) | 3%
O=C(Nc1c(C(=O)N2CCOCC2)cnn1-c1ccccc1)c1ccccc1 | 1%
Cc1cc(C(=O)NCc2ccccc2Br)no1 | 3%

canonical_smiles | HSD17B inh
COc1ccccc1NC(=O)CSc1nnnn1Cc1ccccc1 | 1%
O=C(c1ccccc1)N1CCN(CC(O)COCC2CC=CCC2)CC1 (stereo not drawn) | -1%
CCN1C(=S)SC(=O)C1=C1C=C(C)N(CCOC)C(C)=C1 | -2%
O=C(CSc1nnc(-c2ccco2)n1-c1ccccc1)N1CCOCC1 | 4%
O=C(O)Cn1nc(-c2ccccc2)c2ccccc2c1=O | -5%
CCOC(=O)N1CCN(CC(=O)Nc2cc3c(cc2C(C)=O)OCO3)CC1 | ?
Cc1cc(C)n(C/C=C/Cn2nc(C)cc2C)n1 | 5%
O=C(NCCCc1ccccc1)c1ccc(Br)o1 | 1%

canonical_smiles | HSD17B inh
CCC(C)(C)n1nnnc1C(c1ccccc1F)N1CCC(C(N)=O)CC1 (stereo not drawn) | 2%
COC(=O)Nc1ccc(OC)c(OC)c1 | 7%
COC(=O)c1cc(=O)n(Cc2ccco2)c(=Nc2ccc(F)c(Cl)c2)s1 | -22%
O=C(Nn1cnnc1)c1ccncc1 | 8%
O=C(Nc1ccc2c(c1)CCC2)c1cnccn1 | -7%
O=C(N1CCOCC1)N1CCC(NC(=O)C23CC4CC(CC(C4)C2)C3)CC1 | 8%
Cc1ccc(S(=O)(=O)N[C@H]2COC(=O)C/C=C\[C@@H](C)[C@H](NS(=O)(=O)c3ccc(C)cc3)COC(=O)C/C=C\[C@H]2C)cc1 | -4%[11.4 µM]
COc1ccccc1Oc1c(C)oc2c(CN3CCN(CCO)CC3)c(O)ccc2c1=O | 32µM*

canonical_smiles | HSD17B inh
O=C(c1cccc(F)c1)N1CCC2(CC1)CCN(c1ncccn1)CC2 | -16%
CC(C)CNC(=O)c1cccc(C(=O)NCC(C)C)c1 | ?
Cc1ccc(-n2nnc3c(SCC(=O)N4CCN(c5ccccc5)CC4)ncnc32)cc1 | 12%
C=CCn1c(SCCC#N)nnc1-c1ccncc1 | -1%
c1ccc(N2CCN(c3cnccn3)CC2)nc1 | -1%
Cc1ccc2[nH]c(-c3ccccc3)c(CN3CCN(C)CC3)c(=O)c2c1 | 3%
COc1ccc(C2SCC(=O)N2c2c(C)n(C)n(-c3ccccc3)c2=O)c(OC)c1 (stereo not drawn) | 4%
Nc1cc(=O)[nH]c(SCC(=O)NCC2CCCO2)n1 (stereo not drawn) | -1%

canonical_smiles | HSD17B inh
Cc1ccc(S(=O)(=O)N(CC(=O)O)c2cccc(Cl)c2)cc1 | 5%
CCCCNC(=O)CS(=O)Cc1nc(-c2cccc(C)c2)oc1C (stereo not drawn) | 5%
N#CCCN(C(=O)COC(=O)c1ccc2c(c1)NC(=O)CS2)c1ccc2c(c1)OCCO2 | -4%
COc1ccc(Cl)cc1C(=O)NCC(C)C | -1%
Cc1noc(C)c1-c1cncnc1NCc1cccnc1 | -4%
CCC1Oc2ccccc2N(CC(=O)Nc2ccc(OC)cc2OC)C1=O (stereo not drawn) | -2%
CC1Cc2ccccc2N1C(=O)CCS(=O)(=O)c1cccs1 (stereo not drawn) | 5%
COc1ccc(OC)c(C2C(C(=O)Nc3ccccc3OC)=C(C)Nc3nc(CCCO)nn32)c1 (stereo not drawn) | -1%

canonical_smiles | HSD17B inh
COc1ccc(C2C3=C(N=C4SCC(=O)N42)c2ccccc2CC3)cc1OC (stereo not drawn) | ?
O=C(O)C1CCCN(S(=O)(=O)c2ccc(Cl)s2)C1 (stereo not drawn) | 0%
CCC1=C(OC(=O)N(CC)CC)N2C(=O)OC(=NCC3CC3)[C@]2(C)[C@H]2C1=CC[C@H]1C(=O)N(c3ccccc3)C(=O)[C@H]12 | 13%
COC(=O)C1C(=O)N2CCCSC2=C(C#N)C1c1cccs1 (stereo not drawn) | 1%
CCOC(=O)C(Cc1cc(C(C)=O)ccc1OC(C)C)C(=O)OCC | -6%
CC1(C)CC(=O)C(C(c2ccco2)C2C(=O)CC(C)(C)CC2=O)C(=O)C1 | 25µM*
O=C(CN(c1ccccc1)S(=O)(=O)c1ccccc1)N1CCN(Cc2ccc3c(c2)OCO3)CC1 | 2%
O=C(NCC1COc2ccccc2O1)C1CCCN(S(=O)(=O)c2cnc[nH]2)C1 (stereo not drawn) | 7%

canonical_smiles | HSD17B inh
COC(=O)c1ccc(NC(=O)CSc2nnc(CNc3ccc(OC)cc3)n2C)cc1 | -14%
Oc1ccc2nc(Cc3ccccc3)[nH]c2c1 | -20%
CCOC(=O)C1C(=O)NCC2CCCC21 (stereo not drawn) | 12%
O=C(O)c1cccc(S(=O)(=O)NCc2cccs2)c1 | 10%
CCOc1ccc(OCc2ccc(C(=O)Nc3ccc(Cl)cn3)o2)cc1 | ?
COC(=O)[C@@]1(C)C=C[C@@H](Cc2ccccc2)N1C(=O)c1ccccc1 | 5%
Cc1ccccc1CSCC(=O)NC(=O)NC(C)(C)C | 3%
Cc1cc(NC(=O)CSc2nc3ccccc3[nH]2)no1 | 4%

2 compounds picked at random from the list so far:
canonical_smiles | HSD17B inh
Cc1cc(NC(=O)CSc2nc3ccccc3[nH]2)no1 | 4%
O=C(O)c1cccc(S(=O)(=O)NCc2cccs2)c1 | 10%

(continued)
canonical_smiles | HSD17B inh
Cc1ccc(Cn2ccc(NC(=O)c3c(-c4ccccc4Cl)noc3C)n2)cc1 | -3%
COc1ccc(C(=O)c2ccc(O)cc2)c(O)c1O | ?
COC(=O)[C@@]1(Cc2ccccc2)[C@@H]2[C@@H](CC(=O)[C@H]2CC(=O)C(=O)N(C)C)CN1C(=O)c1ccccc1 | 6%
Cn1nnc(NC(=O)c2ccco2)n1 | 10%
O=C(CSc1nc2c(c(=O)n1-c1ccc(Cl)cc1)SCC2)Nc1ccc2c(c1)OCCO2 | 6%
CCCS(=O)(=O)NCc1cn2c(C)csc2n1 | 5%
CCc1nnc(NC(=O)CSc2nnc(COc3ccccc3)n2Cc2ccccc2)s1 | 5%
Cc1ccc(-c2nc(N)n(C(=O)Cc3ccccc3)n2)cc1 | -5%

canonical_smiles | HSD17B inh
O=C(O)CN1C(=O)CCS(=O)c2ccccc21 (stereo not drawn) | -1%
O=C(Nc1cccc(F)c1)N1CCCC2(CCNCC2)C1 | -3%
CN(CCc1ccccn1)c1ncnc2[nH]ncc12 | 9%
Fc1cccc(CSc2ncnc3c2ncn3[C@H]2CCCS2)c1 | -1%[11.4 µM]
CC(C)(C)OC(=O)NCC(=O)NCC(=O)OCc1ccccc1 | 4%
O=C1CCSc2cccc3cccc(c23)N1 | 1%
Cc1oc2nc(SCC(=O)NC3CCCCC3)nc(N)c2c1C | -5%
Cc1ccc(-c2nn(C)c(=O)c3ccccc23)cc1CNC(=O)c1ccco1 | 6%

canonical_smiles | HSD17B inh
COc1ccc(NC(=O)N2CC[C@@]3(CCCN(C(=O)c4ccco4)C3)C2)cc1 | 1%
COc1ccc2cc(C(C)CO)ccc2c1 (stereo not drawn) | 3%
CCC(C)NC(=O)c1cc(CC(C)C)on1 (stereo not drawn) | 4%
COc1ccc2[nH]c(I)c(CCNC(C)=O)c2c1 | 1%
CCn1ncc(C2=NOC(C(=O)Nc3ccc4c(c3)OCO4)C2)c1C (stereo not drawn) | -9%
CCOC(=O)N1CCC2(CC1)C(C#N)=C(N)Oc1c2sc2nc(C)cc(C)c12 | 0%

Screening results (PubChem)

Some of the compounds tested; the hit share may differ from the screen's.
